Cruzain inh noDet – qHTS Assay for Promiscuous and Specific Inhibitors of Cruzain (without detergent); Cruzipain (Trypanosoma cruzi), P25779; purified cruzain, Z-FR-AMC fluorescence, no detergent; Potency, µM, for the others: max response, negative = inhibition, hits mostly inhibitors; hit rate 2.3% among 200,000; active = well fitted curve in the direction sought with a large enough effect; inconclusive = small, poorly fitted or top-dose-only effect, or another doubt; inactive = no such curve, though single readings can be large; an effect the other way counts as inactive or inconclusive;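 also: plate controls were enzyme without inhibitor for no effect and buffer without enzyme for full effect; nearly all actives have a fitted effect of over 40% in size; top concentration of the series not given in the record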
Target sequence (P25779 123-467 limits assumed): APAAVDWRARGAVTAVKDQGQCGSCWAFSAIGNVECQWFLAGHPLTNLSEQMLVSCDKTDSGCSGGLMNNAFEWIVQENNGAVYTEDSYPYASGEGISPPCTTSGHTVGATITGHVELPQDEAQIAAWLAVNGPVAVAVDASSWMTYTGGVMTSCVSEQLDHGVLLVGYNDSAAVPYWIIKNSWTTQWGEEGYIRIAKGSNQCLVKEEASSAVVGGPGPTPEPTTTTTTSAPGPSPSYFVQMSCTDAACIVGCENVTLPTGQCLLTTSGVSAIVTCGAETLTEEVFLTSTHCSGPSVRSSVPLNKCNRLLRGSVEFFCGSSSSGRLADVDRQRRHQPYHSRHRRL
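Purified cruzain at 1.5 nM, pre-incubated 15 min with compound at room temperature in 100 mM sodium acetate pH 5.5, 5 mM DTT, 0.00005% Triton X-100. Reaction started with 2 uM Z-FR-AMC; AMC fluorescence increase over 60 s gives rate.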
RE007 growth inh – qHTS Assay for Inhibitors of the HIV-1 protein Vpr; Potency, µM (doses to about 92.2 µM), inactives show top-dose activity change, negative = less growth; S. pombe RE007 Vpr strain, BacTiter-Glo ATP luminescence, 24 h; control for the full effect not named in the record; hit rate 0.21% among 360,000; active = well fitted falling curve with a large enough effect; inconclusive = small, poorly fitted or top-dose-only effect; inactive = no such curve, though single readings can be large or run the other way;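 also: % is scaled to controls: 0 for no effect and ±100 for the full control effect; nearly all actives have a fitted effect of over 50% in size; the assay follows cell death caused by Vpr and the record does not say whether a fall means rescue or toxicity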
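Fission yeast strain RE007, carrying one chromosomally integrated HIV-1 vpr copy, was seeded at OD 0.01 in PMG+AL medium with 23 nL pinned compound. After 24 h at 30 °C and 99% humidity, viability was read by BacTiter-Glo luminescence.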
Lassa entry inh – qHTS for Inhibitors of binding or entry into cells for Lassa Virus; Lassa virus pseudotype entry inhibition, cell reporter; control for the full effect not named in the record; Potency, µM (top dose mostly 37.9 µM), for the others: top-dose activity change, negative = inhibition, hits mostly inhibitors; hit rate 1.2% among 300,000; AID 540256, 2011; active means well fitted inhibition curve with a large enough effect; inconclusive means small, poorly fitted or top-dose-only effect, or effect the other way; inactive means flat fitted curve, though single readings scatter; tested in HEK293 cells; also: % is scaled to controls: 0 for no effect and ±100 for the full control effect; nearly all actives have a fitted effect of over 50% in size; luciferase read-out
Cruzain inh Det – qHTS Assay for Promiscuous and Specific Inhibitors of Cruzain (with detergent). Cruzipain (Trypanosoma cruzi), P25779. Potency, µM, for the others: max response, negative = inhibition, most hits filed as inhibitors. purified cruzain, Z-FR-AMC fluorescence, 0.01% Triton. hit rate 0.43% among 200,000; active = well fitted curve in the direction sought with a large enough effect; inconclusive = small, poorly fitted or top-dose-only effect, or another doubt; inactive = no such curve, though single readings can be large; an effect the other way counts as inactive or inconclusive;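 also: plate controls were neutral wells for no effect and buffer without enzyme for full effect; nearly all actives have a fitted effect of over 40% in size; top concentration of the series not given in the record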
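Cruzain (1.5 nM) preincubated 15 min at RT with compound in 100 mM sodium acetate pH 5.5, 5 mM DTT, 0.01% Triton X-100. Reaction started with 2 uM Z-FR-AMC; AMC fluorescence (ex 360/em 450 nm) change over 60 s gave rate.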
Marburg entry inh – qHTS for inhibitors of binding or entry into cells for Marburg Virus | AID 540276, 2011 | Potency, µM (highest dose often 37.8 µM), for the others: at the highest dose activity change, negative = inhibition, most hits filed as inhibitors | hit rate 1.8% among 300,000 | Marburg virus pseudotyped entry inhibition, cell reporter; control for the full effect not named in the record; about a third of the inactives were read at about 46 µM; active = well fitted inhibition curve with a large enough effect; inconclusive = small, poorly fitted or top-dose-only effect, or effect the other way; inactive = flat fitted curve, though single readings scatter; tested in HEK293 cells; about a fifth of its hits are not listed in these tables; also: % is scaled to controls: 0 for no effect and ±100 for the full control effect; luciferase read-out
NS1 inh – qHTS Assay for Inhibitors of Influenza NS1 Protein Function; S. cerevisiae slowed by influenza A NS1, growth recovery by OD600; hit rate 0.4% among 270,000; AID 2326, 2010; Potency, µM (highest dose often 46.1 µM), inactives show top-dose activity, positive = more growth; also: actives are rising curves; nearly all actives have a fitted effect of over 50% in size
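A cell-based growth assay was used: compounds that relieve NS1-induced slow growth of budding yeast raise OD600. Assay medium was yeast nitrogen base with ammonium sulphate and -URA supplement, pH 6.0, with 2% galactose.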
StopGo reporter – High Throughput Screening for Foot and Mouth Disease Virus Antivirals; AID 1159524, 2015; hit rate 1.2% among 410,000; Potency, µM (doses to about 57.9 µM), for the others: at the top dose signal change, negative = less light; human cells with a luciferase reporter of 2A StopGo recoding; control for the full effect not named in the record; active = well fitted falling curve with a large enough effect; inconclusive = small, poorly fitted or top-dose-only effect; inactive = no such curve, though single readings can be large or run the other way; tested in HEK293T cells; also: % is scaled to controls: 0 for no effect and ±100 for the full control effect; nearly all actives have a fitted effect of over 45% in size; luciferase light after 4 h
SARS PLP yeast – qHTS of Yeast-based Assay for SARS-CoV PLP; Potency, µM (top dose mostly 32.9 µM), inactives show at the top dose activity, positive = growth rescue; hit rate 0.19% among 330,000; S. cerevisiae expressing SARS-CoV PLpro, growth rescue; control for the full effect not named in the record; also: 0% is about no effect; nearly all actives have a fitted effect of over 55% in size; growth read by luminescence after 48 h
* hit, by the source's call; u = inconclusive; x = not tested or not shown; & = joins results of further samples; [ ] = dose if it differs, or a comment. Unless noted, calls follow the shape of the dose curve; as a rule, active means well fitted rising curve with a large enough effect; inconclusive means small, poorly fitted or top-dose-only effect; inactive means no such curve, though single readings can be large or run the other way. Potency is read from the fitted curve at half-maximal effect.

Every second line gives: Cruzain inh noDet | RE007 growth inh | Lassa entry inh | Cruzain inh Det | Marburg entry inh | NS1 inh | StopGo reporter | SARS PLP yeast
> CSCC[C@H](NC(=O)N1CCn2c1nc1ccccc12)C(=O)NC1CC1
 : x | -4% | x | x | x | -1% | -8% | -9%
> Cc1ccc(CN2C(=O)/C(=C3\SC(N4CCOCC4)=NC3=O)c3cc(Br)ccc32)cc1
 : -15% | x | x | -0.8% | x | -1% | x | 11%
> COCCn1c(CN(Cc2ccccc2)Cc2ccccc2)nc2c1c(=O)n(C)c(=O)n2C
 : u | -4% | x | -6.0% | -7% | -14% | -19% | -21%
> CCCCCc1nc2c(c3c1CCCC3)CCCC2
 : x | -5% | -15%[46.1 µM] | x | u | -32% | -29% | -3%
> Cc1ccccc1NC(=O)/C(C#N)=C\c1ccsc1
 : 2% | -14% | 7% | -3.1% | u | -4% | 36%[activator] | -18%
> CCN(C(=O)c1cc2c(s1)-c1ccccc1S(=O)(=O)C2)c1cc(OC)ccc1OC
 : x | 1% | x | x | x | 13% | 0% | 4%
> O=C(Cn1cnc2c(nnn2-c2ccccc2)c1=O)NCc1ccco1
 : -3% | 1% | x | -1.2% | x | -57% | -10% | 2%
> CC(C)NS(=O)(=O)c1ccc(OCC(=O)Nc2cccc3ccccc23)cc1
 : 7% | -4% | 15% | 2.0% | -30% | 2% | 3% | 5%
> CC(C)(C)c1nc2cc(Cl)c([N+](=O)[O-])cc2o1
 : x | -17% | u | x | u | 2% | -29% | -1%
> Cc1ncc([N+](=O)[O-])n1Cc1ccccc1F
 : x | -19% | 0%[46.1 µM] | x | 19%[46.1 µM] | 3% | -15% | 1%
> COc1ccc(C2=NOC(C(=O)NCc3ccco3)C2)cc1 (stereo not given)
 : -4% | 6% | 7% | -1.8% | u | -8% | 36%[activator] | -7%
> O=P(CO)(Cc1ccccc1)Cc1ccccc1
 : -3% | 5% | 16% | 4.4% | 2% | 4% | 2% | 0%
> CCN(CCO)C(=O)CC(c1ccccc1)c1cc(Br)ccc1O (stereo not given)
 : 10% | 22% | -23% | -0.3% | 19% | -4% | -18% | 6%
> COc1ccc(NC(=O)C2CCN(C(=O)[C@@H]3Cc4ccccc4CN3C(=O)OC(C)(C)C)CC2)cc1
 : x | 1% | x | x | x | -2% | -10% | 0%
> Cc1ccc(OCc2nc3ccccc3n2CCOc2ccc(Cl)cc2)cc1
 : -12% | x | -3%[46.1 µM] | -4.5% | u | x | -22% | x
> Cc1noc(C)c1COc1ccc(C(=O)OCC(=O)Nc2ccc3c(c2)OCO3)cc1
 : 6% | 0% | 14% | -1.8% | 11% | 2% | -25% | 11%
> COc1cccc(OCCN2CCN(c3ncnc4c3cnn4-c3ccccc3)CC2)c1
 : u | 7% | -18% | 6.1% | u | -13% | u | 1%
> Cc1cccc([C@@H]2[C@@H]3C(=O)N(Cc4ccccc4)C(=O)[C@@H]3[C@]3(Cc4ccc(Cl)cc4)C(=O)N(c4cccc(Br)c4)C(=O)N23)c1
 : x | -10% | x | x | x | 15% | -14% | 0%
> COc1ccc(OC)c(C2=Nn3c(nnc3-c3cc(OC)c(OC)c(OC)c3)SC2)c1
 : u | 20% | -25%[14.3 µM] | -1.8% | u | -50% | -22% | -1%
> CCN(CC)S(=O)(=O)c1ccc(Cl)c(C(=O)Nc2cc(C)nn2-c2ccccc2)c1
 : 1% | -13% | u | -1.7% | u | -7% | -36% | 11%
> CCCCn1c(N)c(N(CCC(C)C)C(=O)c2cc(-c3ccco3)nc3ccccc23)c(=O)[nH]c1=O
 : x | 5% | 4% | x | -26% | -12% | -1% | -18%
> O=C(COC(=O)/C=C/c1ccc(Cl)cc1Cl)NCCC1=CCCCC1
 : u | 0% | 0% | 0.6% | 9% | 1% | 0% | 20%
> Cc1ccccc1-n1ncc2c1CC(C)(C)CC2NC(=O)C1=CC(=O)CC(C)(C)O1 (stereo not given)
 : x | 13% | -29% | x | u | 3% | -18% | -3%
> CC(=O)c1ccc(N(C(=O)CNC(=O)c2ccco2)C(C(=O)NC2CCCC2)c2ccc(C)o2)cc1 (stereo not given)
 : x | 2% | u | x | 2%[46.1 µM] | -6% | -7% | -1%
> CCC1(C)Nc2ccccc2C(=O)N1O (stereo not given)
 : 14% | -6% | 2% | 4.6% | 14% | -2% | -7% | 1%
> Cc1cccc(NC(=O)c2ccc(C(=O)c3ccccc3)o2)c1
 : x | u | -3% | x | 25% | -5% | 39%[activator] | -1%
> CCC[C@@H](CN[C@@H](CNC)C(C)C)NCCCCc1ccccc1
 : x | -8% | x | x | x | -4% | -16% | -2%
> CCCCN(CCCC)Cc1cc2ccccc2c2c1COC2
 : 4% | -6% | 7% | 3.9% | u | 13% | -14% | 9%
> O=[N+]([O-])c1cccc(S(=O)(=O)NCCc2ccccc2)c1
 : x | 1% | x | x | x | -12% | 35%[activator] | 0%
> COC(=O)c1cccc(CSc2nnc(-c3ccco3)n2-c2ccccc2)c1
 : -13% | 27% | 2% | -6.2% | -2%&-3% | -64% | -5% | -6%
> COCCN1C(=O)c2[nH]nc(-c3ccccc3O)c2C1c1ccc(Cl)c(Cl)c1 (stereo not given)
 : -27% | x | u | -16% | -23%[46.1 µM] | x | -11% | x
> CCOc1ccc(N(C)C(=O)CCc2nnc3ccc(N4CCOCC4)nn23)cc1
 : x | 5% | x | x | x | 3% | -18% | -1%
> O=C(CN(Cc1ccc(F)cc1)C(=O)CNS(=O)(=O)c1ccc(F)cc1)NCC1CCCO1 (stereo not given)
 : x | -4% | -3% | x | -2%[46.1 µM] | 3% | 18% | -5%
> CCc1sc(N(C(=O)Cc2ccccc2)c2cccc(F)c2)nc1-c1ccc(C)cc1
 : u | 11% | u | 0.5% | -4% | -7% | 7% | 12%
> O=C(C1CCC(CNc2nc(=S)[nH]c3ccccc23)CC1)N1CCN(c2ccc(F)cc2)CC1 (stereo not given)
 : x | -7% | u | x | u | x | 18µM* | 0%
> CC1CCN(Cc2c(O)ccc3c(=O)c(-c4nc5ccccc5s4)c(N)oc23)CC1
 : 3% | 10% | 2% | -14% | u | 17% | -1% | -4%
> Cn1nc(C(=O)NCCCN2CCCCC2)c2c1-c1ccccc1SC2
 : x | -8% | x | x | x | -7% | -15% | -4%
> CCN1C(=O)c2ccccc2Sc2ccc(NC(=O)Nc3cccc([N+](=O)[O-])c3C)cc21
 : -20% | x | 1%[46.1 µM] | 6.4% | x | x | u | x
> CN(C)C(CNC(=O)Cc1ccc(Br)cc1)c1ccccc1 (stereo not given)
 : x | -4% | 10% | x | u | -8% | 6% | -1%
> COc1ccc(C(=O)N2CCN(c3nc4c(OC)cccc4s3)CC2)cc1OC
 : u | x | u | -8.9% | x | x | u | x
> CCOC(=O)N1CCC(NS(=O)(=O)c2ccc3c(c2)oc(=O)n3C)CC1
 : -7% | -12% | u | -0.5% | u | 4% | 33%[activator] | -3%
> CC(=O)OCC(CCn1cnc2cnc(N)nc21)COC(C)=O
 : u | x | x | -0.4% | x | x | -2% | 0%
> CC(=O)Nc1ccc2[nH]c(C)cc(=O)c2c1
 : 3% | -10% | -1% | 2.1% | -1% | 1% | -1% | 8%
> COc1ccc(CCN(Cc2cc3cc(C)cc(C)c3nc2Cl)C(=O)C2CC2)cc1
 : 12% | 4% | -29% | -3.4% | u | 18% | x | -12%
> CN1C(=O)/C(=C\N2CCc3ccccc32)C(=O)NC1=S
 : 23% | -4% | 10% | -3.3% | 0% | 18% | -29% | -4%
> O=C(c1cccc(NS(=O)(=O)c2ccccc2)c1)N1CCCC1
 : x | 18% | x | x | x | 9% | -18% | 2%
> CN1CCN(CCCCOc2ccccc2C=O)CC1
 : x | -9% | u | x | u | 2% | -13% | 0%
> CC(=O)Nc1ccc(-c2csc(NNC(=O)c3ccccc3)n2)cc1
 : x | 1% | x | x | x | u | u | 0%
> CCOc1ccccc1NC(=O)COC(=O)c1ccccc1SCC(=O)N1CCCC1
 : x | -3% | -33% | x | -17% | x | -5% | 1%
> COC(=O)c1ccc(C)c(NC(=O)CCNC(=O)c2ccc([N+](=O)[O-])cc2)c1
 : -12% | 3% | 0% | -2.9% | 10% | 4% | 0% | -3%
> COc1ccccc1-c1nc(C#N)c(N2CCN(C(=O)c3ccco3)CC2)o1
 : x | -4% | 8% | x | 5% | -3% | -5% | 1%
> Cc1nc2ccc(NC(=O)c3ccc([N+](=O)[O-])cc3[N+](=O)[O-])cc2s1
 : x | -23% | u | x | 0% | x | -8% | -3%
> COC(=O)c1ccc(COc2cc(C)cc3oc(=O)c4c(c23)CCCC4)o1
 : 9% | 11% | -9% | -6.4% | 4% | -13% | x | -4%

Grouped by structure, the entries above containing an aryl thioether with sulfur outside any ring (2)
Every second line gives: Cruzain inh noDet | RE007 growth inh | Lassa entry inh | Cruzain inh Det | Marburg entry inh | NS1 inh | StopGo reporter | SARS PLP yeast
> COC(=O)c1cccc(CSc2nnc(-c3ccco3)n2-c2ccccc2)c1
 : -13% | 27% | 2% | -6.2% | -2%&-3% | -64% | -5% | -6%
> CCOc1ccccc1NC(=O)COC(=O)c1ccccc1SCC(=O)N1CCCC1
 : x | -3% | -33% | x | -17% | x | -5% | 1%

Grouped by structure, the compounds so far containing a tert-butyl group.
Every second line gives: Cruzain inh noDet | RE007 growth inh | Lassa entry inh | Cruzain inh Det | Marburg entry inh | NS1 inh | StopGo reporter | SARS PLP yeast
> CC(C)(C)c1nc2cc(Cl)c([N+](=O)[O-])cc2o1
 : x | -17% | u | x | u | 2% | -29% | -1%
> COc1ccc(NC(=O)C2CCN(C(=O)[C@@H]3Cc4ccccc4CN3C(=O)OC(C)(C)C)CC2)cc1
 : x | 1% | x | x | x | -2% | -10% | 0%
